Compound activity deposited in PubChem BioAssay by several laboratories.
Sa RN4220 lethal: growth inhibition of S. aureus RN4220, primary screen, OD600; 16 h; 0.33% of 330,000 active; inhibition, % (test concentration not listed);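 active = z-score of -3 or lower and OD600 up to 0.18 on both plates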;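 note: plate controls were untreated cells for no effect and reference antibiotic for full effect; stock transfer was 100 nL into about 80 µL; one replicate is shown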
PrP 5UTR inh: inhibition of PrP 5' UTR reporter expression; cell-based PrP 5' UTR mRNA reporter, plate reader; inhibition, % (concentration not given with the values); 0.35% of 340,000 active; AID 488862, 2010;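 active = every replicate at 50% or more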;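 note: 0 = median of the neutral control wells; tested in H4 reporter cells; numbers are from one replicate; inactives centre near -14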
ugtP null kill: growth inhibition of ugtP-null S. aureus, primary screen, RN4220 ugtP deletion, OD600; 16 h; some inactives read as strong as hits; growth inhibition, % (test concentration not listed); 0.54% of 330,000 active; AID 1259309, 2017;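 active = z-score under -3 and OD600 up to 0.15 on both plates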;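 note: plate controls were untreated wells for no effect and antibiotic for full effect; wells of about 80 µL received 100 nL stock; the first replicate is given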
Autofluor counter: flagged as autofluorescent in microsphere protease counterscreen. 3.1% of 360,000 active. fluorescence intensity (no concentration beside the values). AID 624483. compound autofluorescence counterscreen, microsphere flow cytometry; active compounds read high;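 active = at least 3 SD above the mean of all compounds, about 16000 in these data; inconclusive = too few beads counted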;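 note: 100 nL of 1 mM stock went into each well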
BJeLR lethal: MLPCN primary cell-based screen for lethality selective to Ras in HRASV12 cells; 0.17% of 300,000 active; AID 1554, 2009; BJeLR (HRASV12) viability, CellTiter-Glo ATP luminescence, 48 h; reference of the scale not given here; inhibition, % (concentration not given with the values);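 active = replicate mean above 50%; inconclusive = above 50% but judged a plate artefact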;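 note: 50 nL library stock added to about 25 µL; numbers are from one replicate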
Mtb hypoxia inh: PubChem AID 1159583; fluorescence inhibition, % (no concentration beside the values); 0.1% of 300,000 active; M. tuberculosis hypoxia-regulated fluorescent reporter, fluorescence;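 active = 35 to 45% if threefold the growth effect, above 45% if 1.5-fold the growth effect; inactive = the rest, general growth blockers included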;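 note: wells of about 50 µL received 100 nL stock; 0% = vehicle wells and 100% = reference inhibitor wells; whole bacteria with a GFP reporter of the hypoxia response; strong numbers were not always called active; many hits fall short of the cut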
Mtb hypoxia inh growth: further read-out of Mtb hypoxia inh, marked with its call; growth inhibition, %; measured here: M. tuberculosis growth (absorbance);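 0% = vehicle and 100% = reference antibiotic; read after six days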
Starred values were filed as active, the others as inactive; u = inconclusive; x = not tested or not shown; & = joins results of further samples.

SMILES | Sa RN4220 lethal | PrP 5UTR inh | ugtP null kill | Autofluor counter | BJeLR lethal | Mtb hypoxia inh | Mtb hypoxia inh growth
COc1ccc(C2N(c3cc(C)on3)C(=O)C3CCCN32)cc1OC (stereo unspecified) | 3.3 | -17 | 14 | 4379 | -7 | 11 | 11
COc1ccc(S(=O)(=O)N2CCCCC2)cc1NC(=O)[C@@H]1CCCN1C(=O)c1cccs1 | -0.6 | -9 | -3 | x | x | 6 | 2
CCN(CC)c1ccc(C=C(c2nnnn2-c2ccc(C)cc2)c2nnnn2-c2ccc(C)cc2)cc1 | -0.1 | -5 | 14 | 2998 | -4 | 4 | 0
CCS(=O)(=O)C1=NN2C(=N)/C(=C\c3ccc(OC(=O)c4ccco4)c(OC)c3)C(=O)N=C2S1 | x | -11 | x | 4428 | -3 | x | x
COc1ccc(/C=C/C(=O)Nc2ccc3nc4n(c(=O)c3c2)CCCC4)cc1 | -1.4 | -11 | -1 | 4719 | 3 | 1 | 9
NC(=O)COC(=O)CNC(=O)c1ccc(Cl)cc1 | 5.5 | -12 | 3 | 9834 | -10 | 8 | 4
O=C(CNC(=O)c1cccs1)N/N=C/c1c(F)cccc1Cl | x | -21 | x | 4538 | -3 | x | x
O=C(c1ccc(CS(=O)(=O)Cc2ccc(Cl)cc2)o1)N1CCCC1 | 2.9 | -17 | 7 | 23181* | -2 | 8 | 7
CC1(C)Cc2c(sc(NC(=O)C(=O)N3CCN(CCO)CC3)c2C(N)=O)CO1 | 3.5 | -11 | 2 | 7986 | -11 | 2 | -7
CCC(=O)N1CCC2(CC1)Oc1ccc(F)cc1C(=O)C21CC(c2ccccc2)=NO1 (stereo unspecified) | 6.2 | -29 | 2 | 4117 | 0 | -4 | 3
O=[N+]([O-])NC1=NCN(Cc2ccco2)CN1Cc1ccco1 | 0.5 | -9 | 0 | 2041 | 5 | x | x
CCCn1c(SCC(=O)c2cc(C)c(C)cc2C)n[nH]c1=O | 2.4 | -31 | -3 | 2872 | 1 | 6 | 13
Cc1nc(C(C)N(C)Cc2nc(-c3ccc4c(c3)OCO4)no2)c(C)s1 (stereo unspecified) | -0.3 | -38 | 0 | 4132 | 6 | -7 | 8
CNC(=S)N/N=C/c1cn(Cc2ccc(F)cc2)c2ccccc12 | x | -15 | x | 2134 | -3 | x | x
CC(C)C(NS(=O)(=O)c1cccc2nsnc12)C(=O)NC1CCCCC1 (stereo unspecified) | 4.0 | 5 | 6 | 4829 | 14 | 11 | -3
Cc1ccc(CN(C(=O)c2ccco2)C(C(=O)NC2CCCC2)c2cccnc2)cc1 (stereo unspecified) | 11 | -15 | 8 | 4850 | -4 | -12 | 5
O=C(COc1ccccc1C(=O)O)Nc1nc2ccc([N+](=O)[O-])cc2s1 | 16 | -27 | 8 | 4319 | 5 | 12 | 5
COCC(O)CSc1c([N+](=O)[O-])nc(C)n1Cc1ccc(OC)c([N+](=O)[O-])c1 (stereo unspecified) | -13 | -28 | -7 | 2447 | 13 | 8 | 9
CCN1CCCC1CNC(=O)c1cn(C)c2ccc(S(=O)(=O)N3CCCCCC3)cc2c1=O (stereo unspecified) | -14 | -11 | -8 | 2835 | x | -1 | 1
COc1ccccc1C(=O)NC(=O)COC(=O)c1cccc(C)c1O | 4.3 | -14 | -2 | 5969 | -2 | 10 | 0

Rewritten with two lines to a compound: 5 of the compounds above.
Under each structure – Sa RN4220 lethal | PrP 5UTR inh | ugtP null kill | Autofluor counter | BJeLR lethal | Mtb hypoxia inh | Mtb hypoxia inh growth
O=C(COc1ccccc1C(=O)O)Nc1nc2ccc([N+](=O)[O-])cc2s1
 : 16 | -27 | 8 | 4319 | 5 | 12 | 5
COc1ccc(/C=C/C(=O)Nc2ccc3nc4n(c(=O)c3c2)CCCC4)cc1
 : -1.4 | -11 | -1 | 4719 | 3 | 1 | 9
CCCn1c(SCC(=O)c2cc(C)c(C)cc2C)n[nH]c1=O
 : 2.4 | -31 | -3 | 2872 | 1 | 6 | 13
COc1ccccc1C(=O)NC(=O)COC(=O)c1cccc(C)c1O
 : 4.3 | -14 | -2 | 5969 | -2 | 10 | 0
CCN(CC)c1ccc(C=C(c2nnnn2-c2ccc(C)cc2)c2nnnn2-c2ccc(C)cc2)cc1
 : -0.1 | -5 | 14 | 2998 | -4 | 4 | 0

Part of the list above, reduced to PrP 5UTR inh.
Molecule	PrP 5UTR inh
CCN1CCCC1CNC(=O)c1cn(C)c2ccc(S(=O)(=O)N3CCCCCC3)cc2c1=O (stereo unspecified)	-11
CCS(=O)(=O)C1=NN2C(=N)/C(=C\c3ccc(OC(=O)c4ccco4)c(OC)c3)C(=O)N=C2S1	-11

The results go on:
SMILES | Sa RN4220 lethal | PrP 5UTR inh | ugtP null kill | Autofluor counter | BJeLR lethal | Mtb hypoxia inh | Mtb hypoxia inh growth
COCCCNC(=O)Cn1cnc2sc(C)c(S(=O)(=O)N3CCN(c4ccccc4OC)CC3)c2c1=O | -0.9 | -15 | 2 | 5589 | -11 | 3 | -2
CN1CCN(C/C(=C2/N=C(c3ccccc3)OC2=O)N(C)C)CC1 | 4.7 | -52 | 13 | 9865 | -17 | 7 | 6
COc1cc2c(cc1OC)C(NNC(=O)c1ccc(Br)o1)=NC(C)(C)C2 | 7.5 | 0 | 13 | 5485 | -9 | -10 | -2
Cc1cc(C)c(NC(=O)Cn2nnc(C(=O)NCCc3ccccc3)c2N)c(C)c1 | 4.4 | -19 | 7 | 3532 | -1 | -1 | -9
Cc1cccc(NC(=O)c2cc(S(=O)(=O)N3CCCC3)cn2C)c1 | 17 | -32 | 16 | 4341 | 6 | -1 | -3
CNC(=S)NN=Cc1cn(Cc2ccc(C)cc2)c2ccccc12 | 2.7 | x | -6 | x | x | 4 | 5
CCCSc1nnc2nc3c(nn12)c1ccccc1n3C | 5.2 | -32 | 0 | 4273 | 12 | 5 | 3
COc1ccccc1C(=O)c1c(C)c(CCC#N)n2ccccc12 | 3.9 | -13 | 2 | 4031 | -7 | 5 | -6
Cc1ccccc1NC(=O)Nc1ccccc1C(N)=O | 5.6 | -14 | -6 | 2221 | -2 | 2 | 2
CN1CCN(C(=O)C2=CC(c3csc4ccccc34)CC(OCCCCO)O2)CC1 (stereo unspecified) | 1.9&7.4 | x | -1&-5 | x | x | 2&10 | -2&9
C#CC(C)(CC)NC(=O)Cn1nnc(-c2cccc(C(F)(F)F)c2)n1 (stereo unspecified) | 2.3 | -21 | 9 | 1967 | 13 | -5 | 3
Cc1ccn2c(C=O)c(-c3ccc(F)cc3)c(C=O)c2c1 | 3.8 | -16 | -2 | 4929 | 3 | 13 | 1
Oc1ccc(Br)cc1C=NNc1nc(N2CCCCC2)nc(N2CCOCC2)n1 | -12 | x | 31 | x | x | 9 | -4
Cc1noc(/C=C/N(C)C)c1S(=O)(=O)N1CCCC(C(=O)Nc2ccc(F)cc2F)C1 (stereo unspecified) | 4.4 | -17 | 7 | 4868 | 9 | 13 | 5
Cc1ccc(N(C(=O)c2csnn2)C(C(=O)NC(C)(C)C)c2cccs2)cc1 (stereo unspecified) | -1.0 | 4 | -1 | 9197 | 16 | 3 | 4
CSC1=NCCN1C(=O)c1ccco1 | 0.6 | -16 | -7 | 5717 | -7 | x | x
CC(=O)O[C@@H]1CC[C@]2(C)C3CC[C@@]4(C)C(C[C@@H](O)[C@@H]4O)C3[C@@H](OC(C)=O)C[C@H]2C1 (stereo partly specified) | 1.6 | 7 | 3 | 4449 | x | -24 | 10
O=C(c1cccs1)N1CCN(c2ncccn2)CC1 | 4.2 | -7 | 2 | 4241 | 8 | 9 | 9
O=C(Nc1cc(Br)ccc1O)C1CC(c2ccccc2Cl)=NO1 (stereo unspecified) | 3.9 | -22 | -19 | 3436 | -8 | 7 | 16
COc1cccc(Nc2ncnc3sccc23)c1 | -1.4 | -33 | 1 | 6318 | 2 | 0 | 14
CCCNC(=O)c1cc(S(=O)(=O)N2CCc3ccccc32)ccc1F | -5.0 | -20 | -5 | 16850* | -2 | -6 | -4
CCC(c1nnnn1CS(=O)(=O)c1ccc(C)cc1)N1CCN(c2nc3ccccc3s2)CC1 (stereo unspecified) | -2.2 | -16 | -18 | 12775 | 18 | -11 | -2
CCOc1ccc(N(CC(=O)Nc2ccc3c(c2)OCCO3)S(=O)(=O)c2c(C)noc2C)cc1 | 4.3 | 14 | 4 | 4080 | 9 | x | x
Cc1cccc(Oc2nc(CN3CCOCC3)nc3sc4c(c23)CCCC4)c1 | 1.0 | -12 | 14 | 2074 | -2 | 5 | 7
Nc1cccnc1Sc1ccccc1 | 4.7 | -20 | 2 | 5550 | -9 | -7 | -13
Cc1[nH]n(-c2ccccc2)c(=O)c1-c1cccc(Cl)c1 | 4.7 | 0 | 10 | 3612 | 0 | x | x
Cc1ccc(NC(=O)Nc2ccc(C(=O)N3CCOCC3)cc2)cc1 | 5.4 | -3 | 11 | 5896 | -3 | -2 | -1
O=C(N/N=C/c1cccc2ccccc12)c1n[nH]c2c1CCCC2 | x | -20 | x | 3507 | 21 | x | x
Cc1cc(N2C(=O)CC(N3CCN(C(c4ccccc4)c4ccccc4)CC3)C2=O)no1 (stereo unspecified) | 4.5 | -10 | 4 | 2903 | -4 | -7 | -9
O=c1c(C=NNc2ccccc2)c(Sc2nnnn2-c2ccccc2)nc2ccccn12 | 9.5 | x | -15 | x | x | -2 | -5
CN1C(=O)C2C(C3CC3)N3C(=O)CN(Cc4ccccc4)C(=O)[C@@]3(C)C2C1=O (stereo partly specified) | 6.2 | x | 7 | x | x | 4 | 4
CC(C)CC(=O)Nc1c2c(nn1-c1cccc(Cl)c1)CS(=O)(=O)C2 | 0.8 | 17 | 6 | u | -1 | 7 | 0
O=C(Nc1ccccn1)c1ccc2c(c1)S(=O)(=O)c1ccccc1C2=O | -11 | -32 | -3 | 4232 | 10 | 7 | 4
CCC1Oc2ccc(C)cc2N(CC(=O)NCc2ccco2)C1=O (stereo unspecified) | 0.7 | 46 | 0 | 3476 | -16 | 2 | 7
CCC1CCC2(CC1)NC(CO)(CO)CO2 (stereo unspecified) | 1.5 | -24 | 2 | 8858 | -16 | 3 | 6
CCOc1ccc(CC(=O)NNC(=S)NC2CCCCC2)cc1OCC | -11 | -8 | 0 | 2393 | -5 | 0 | 1
O=C(NC1CC2CCCC(C1)N2S(=O)(=O)c1ccccc1)c1ccco1 (stereo unspecified) | 2.9 | -10 | -6 | 11993 | -2 | 2 | -1
COc1cc(C(=O)NCCN2CCN(C(=O)c3cc(OC)c(OC)c(OC)c3)CC2)cc(OC)c1OC | -1.0 | -16 | -1 | 6617 | 7 | -20 | -4
Cc1nnc(SCC(=O)Nc2ccc(OC(F)F)c(Cl)c2)n(N)c1=O | 4.7 | -9 | 1 | u | x | 5 | 9
CC1(C)Cc2c(cnn2-c2ccc(F)cc2)C(NC(=O)CCCN2CCCCC2=O)C1 (stereo unspecified) | 0.1 | -4 | 3 | 6448 | -4 | 4 | 6
Cc1ccc(/C=N/n2c(C)nnc2C)s1 | x | -33 | x | 3974 | -2 | x | x
Cc1ccc(NC(=O)C2CCCN2S(=O)(=O)c2ccc(-c3ccc(=O)[nH]n3)s2)c(C)c1 (stereo unspecified) | 48 | -4 | 35 | 6327 | -2 | 1 | -3
CCn1nc(C(=O)NNC(=O)c2ccc(OC(F)F)cc2)c2ccccc2c1=O | 6.4 | 1 | 6 | 5076 | x | 0 | 1
COC(=O)C1=C(c2cc3ccccc3s2)CC2CCC1N2C(=O)NCCO (stereo unspecified) | 6.1 | x | 10 | x | x | 18 | 5
O=C(COc1ccc([N+](=O)[O-])cc1)Nc1ccncc1 | 2.4 | -10 | 2 | 2099 | 1 | 4 | -4
C=CCNC(=O)COc1ccccc1C#N | 0.7 | -12 | -7 | 4061 | 4 | 3 | 9
CC(Sc1nncn1C)C(=O)Nc1cc(C(F)(F)F)ccc1N1CCOCC1 (stereo unspecified) | 13 | -26 | 6 | 4046 | 4 | 1 | 4
CN(C)S(=O)(=O)n1cc(/C=C(\NC(=O)c2ccccc2F)C(=O)NCCCn2ccnc2)c2ccccc21 | 0.9 | -6 | 1 | 4433 | -4 | 10 | 10
COc1ccc(C(=O)N=c2sc3c(C)ccc(OC)c3n2C)cc1 | -15 | -61 | -11 | 5683 | 22 | 6 | 8
O=C1NC(=O)C(CCc2ccncc2)(c2ccccc2)C(=O)N1 | -2.2 | -1 | -1 | 3856 | -4 | -1 | 12
CC1NC(C)(C)Cc2c1ccc1ccccc21 (stereo unspecified) | -5.7 | 0 | 1 | 3062 | 9 | 4 | -3
